# GIRK2 act = GIRK2 channel activation; calls only for hits at 25 µM; actives 0.05% (n = 63,000); HEK293-GIRK2 thallium flux, Thallos fluorescence; P48051;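 active means among the strongest 0.2% of first-round signals and kept after retests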;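 further: first round at about 10 µM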
# Target sequence (P48051 whole entry, looked up): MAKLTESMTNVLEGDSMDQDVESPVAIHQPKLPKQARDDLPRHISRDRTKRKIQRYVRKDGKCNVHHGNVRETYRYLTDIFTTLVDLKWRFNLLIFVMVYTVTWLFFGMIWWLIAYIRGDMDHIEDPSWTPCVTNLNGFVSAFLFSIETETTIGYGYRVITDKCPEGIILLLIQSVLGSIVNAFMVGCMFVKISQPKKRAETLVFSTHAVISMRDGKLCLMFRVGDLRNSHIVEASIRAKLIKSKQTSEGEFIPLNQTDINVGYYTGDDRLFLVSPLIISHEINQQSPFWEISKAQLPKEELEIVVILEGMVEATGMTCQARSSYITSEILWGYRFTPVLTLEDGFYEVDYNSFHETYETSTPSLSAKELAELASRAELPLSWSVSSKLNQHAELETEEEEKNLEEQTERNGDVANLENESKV
# Calls only; i = inactive. These rows are one share of the data. The share of hits here may be higher or lower than overall.
GIRK2 act	Compound
i	O=C1NC(=S)NC(=O)C1=C1C=C(c2ccccc2)N(CCN2CCOCC2)C2=C1CCCC2
i	O=C(c1cc2ccccc2o1)N1CCC(c2cccs2)CC1
i	CC1CCC(NC(=O)C2CCCN(c3nc4c(-c5ccccc5)csc4c(=O)[nH]3)C2)CC1 (stereo not given)
i	COCCN(Cc1ccoc1)C(=O)c1ccccc1OC
i	COc1cc(C(=O)NCCCS(=O)(=O)N2CCc3ccccc3C2)cc(OC)c1OC
i	O=C1NC(=O)C(C(=S)Nc2ccccc2)C(=O)N1
i	O=C(NC1CCCCC1)N1CCN(Cc2nnnn2-c2ccc(Cl)cc2)CC1
i	COc1ccccc1NC(=O)CNS(=O)(=O)c1ccc(C(C)(C)C)cc1
i	O=C(NC1CCN(C(=O)c2cn(-c3ccc(F)cc3)nn2)CC1)c1ccccc1Cl
i	COc1ccc(S(=O)(=O)Nc2cnc(N(C)C)nc2)c(C)c1C
i	Cc1ccc(Cl)cc1NC(=O)Cn1c(=O)cnc2cc(C(=O)NC3CC3)ccc21
i	CC(C)(C)c1noc(-c2ccc(-n3cnc(C(=O)NCc4ccccc4Cl)c3)nc2)n1
i	CCN1CCN(CC(O)COc2ccc(C(C)(C)C)cc2C(C)(C)C)CC1 (stereo not given)
i	COc1ccc(-c2cc3c(=O)[nH]nc(SCc4nc(-c5ccccc5OC)no4)n3n2)cc1OC
i	COc1ccc(SCC2CCN(C(=O)Nc3ccccc3F)CC2)cc1
i	Cc1cc(=O)[nH]c(-n2nc(C3CC3)cc2NC(=O)C(=O)c2c(C)[nH]c3ccccc23)n1
i	COCCCn1c(C(=O)Nc2cccc(C)c2)cc2c(=O)n3cccc(C)c3nc21
i	CC1(CO)CC[C@]2(C(=O)O[C@@H]3O[C@H](CO)[C@@H](O)[C@H](O)[C@H]3O)CC[C@]3(C)C(=CCC4[C@@]5(C)CC[C@H](O[C@@H]6O[C@H](C(=O)O)[C@@H](O)[C@H](O)[C@H]6O)C(C)(C)C5CC[C@]43C)C2C1 (stereo not given in full)
i	COc1ccc(C(=O)/C=C/c2ccccc2Cl)c(O)c1
i	Cc1ccc(C(=O)Nc2c3c(nn2CC(=O)NCc2ccco2)CSC3)cc1C
i	O=C(NCCC(O)c1ccc2c(c1)OCO2)c1cc(C2CC2)on1 (stereo not given)
i	CCS(=O)(=O)Nc1ccc2oc3c(c2c1)C(=O)CCC3
i	CCCCn1c(=O)c2c(nc(Br)n2C(C)C(C)=O)n(C)c1=O (stereo not given)
i	O=C(NCc1ccco1)c1cc(C2CC2)on1
i	O=C(c1cc(-c2cccs2)[nH]n1)N1CCN(CC(O)c2cccs2)CC1 (stereo not given)
i	Cc1nnsc1C(=O)N1CCC(c2cccs2)CC1
i	COc1ccc2c(=O)c3c(oc2c1)C(=O)N(c1nnc(C)s1)C3c1ccccc1 (stereo not given)
i	CC(=O)N1CCN(C(=O)C(NC(=O)c2ccc(C)cc2)S(=O)(=O)c2ccc(Cl)cc2)CC1 (stereo not given)
i	O=C(NCc1ccncc1)C1CCN(c2nc3ccsc3c(=O)n2Cc2ccc(F)cc2)CC1
i	Cc1ccc(N(C(=O)c2ccc([N+](=O)[O-])o2)C(=O)N2CCCCC2)cc1
i	COc1cccc(Oc2nccn3c(=O)n(CC(=O)Nc4ccccc4Br)nc23)c1
i	CCCc1ccc(C(=O)N2CCOC(Cc3ccccc3)C2)cc1 (stereo not given)
i	O=C(Nn1cnc2c(cnn2-c2cccc(Cl)c2)c1=O)c1ccccc1Cl
i	Cc1nc(N2C(=O)c3oc4ccccc4c(=O)c3C2c2cccs2)sc1C (stereo not given)
i	CNC(=O)CCNS(=O)(=O)c1ccc(OC)c(N(C)S(C)(=O)=O)c1
i	O=c1c(-c2ccc(Br)cc2)coc2cc(OCCN3CCOCC3)ccc12
i	CC(=O)Nc1nc2c(s1)CN(C(=O)/C=C/c1ccco1)CC2
i	Cc1cc(C)n(-c2nc3c(c(=O)n(CC(N)=O)c(=O)n3C)n2CCCc2ccccc2)n1
i	COCc1nnc(NC(=O)COc2ccc(Br)cc2C(C)(C)C)s1
i	O=C(c1cc(=O)c(OCc2ccccc2)co1)N1CCN(Cc2ccccc2)CC1
i	O=C(c1ccc2c(c1)OCO2)N1CCN(c2ncnc3c2nnn3-c2ccc(Cl)cc2)CC1
i	COc1cc2nc(NC(=O)Nc3cccs3)sc2cc1OC
i	COc1ccc(N2C(=O)N(Cc3c(F)cccc3Cl)c3ccccc3S2(=O)=O)cc1OC
i	O=C(Cn1cccc(-c2nc(-c3cnccn3)no2)c1=O)Nc1ccc2c(c1)CCC2
i	Cn1cc(C(=O)N2CCC(Oc3ccc(C(F)(F)F)cn3)CC2)nn1
i	O=C1CCc2cc(NC(=O)c3ccc4nsnc4c3)ccc2N1
i	CCCNC(=O)c1nnn(-c2ccc(OCC)cc2)c1COC
i	COC(=O)c1ccc(C2c3c(oc4ccccc4c3=O)C(=O)N2Cc2cccnc2)cc1 (stereo not given)
i	COc1ccc(NC(=O)Cc2csc(SCc3ccncc3)n2)cc1
i	COc1ccc(C2(CNS(=O)(=O)c3cn(C)cn3)CCCC2)cc1
i	Cc1ncc2c(SCC(=O)NCc3ccc(C(F)(F)F)cc3)ncnc2n1
i	O=C(NCCc1ccncc1)c1ccc(-n2cccc2)cc1
i	Cc1nc2sc(C)c(C)n2c(=O)c1NC(=O)CC1CCCCC1
i	COc1ccccc1C(=O)Nc1ccccc1NC(=O)/C=C\c1cccs1
i	O=C(NCC1CC1)c1ccc2c(=O)n(-c3ccc(F)cc3)c(N3CCCC3)nc2c1
i	C=C[C@](C)(CC[C@@]1(C)[C@H](C)C[C@H](O[C@@H]2O[C@@H](C)[C@H](O)[C@@H](O[C@@H]3O[C@H](CO[C@@H]4O[C@@H](C)[C@H](O)[C@@H](O)[C@H]4O)[C@@H](O)[C@H](O)[C@H]3O)[C@H]2O)[C@@]2(C)C(C)=CCC[C@H]12)O[C@@H]1OC[C@H](O)[C@H](O)[C@H]1O[C@@H]1O[C@@H](C)[C@H](O)[C@@H](O)[C@H]1O
i	COc1ccc(C(=O)NCCc2csc(-n3nc(C)cc3C)n2)cc1OC
i	COCCNC(=O)N1CCN(c2nc3c(OC)cccc3s2)CC1
i	Cc1noc(C)c1CCC(=O)N1CC(c2nc(-c3ccco3)no2)C1
i	CCCCS(=O)(=O)NCC(Cc1cccc(F)c1)N1CCCC1=O (stereo not given)

# Filtered by structure, the compounds so far with an NH in an aromatic ring.
GIRK2 act	Compound
i	CC1CCC(NC(=O)C2CCCN(c3nc4c(-c5ccccc5)csc4c(=O)[nH]3)C2)CC1 (stereo not given)
i	COc1ccc(-c2cc3c(=O)[nH]nc(SCc4nc(-c5ccccc5OC)no4)n3n2)cc1OC
i	Cc1cc(=O)[nH]c(-n2nc(C3CC3)cc2NC(=O)C(=O)c2c(C)[nH]c3ccccc23)n1
i	O=C(c1cc(-c2cccs2)[nH]n1)N1CCN(CC(O)c2cccs2)CC1 (stereo not given)

# The list goes on.
GIRK2 act	Compound
i	Cc1cc(C)c(C)c(S(=O)(=O)NCc2ccc(C(=O)N3CCCCC3)cc2)c1C
i	COc1cccc(NC(=O)NC2CCN(Cc3noc(-c4ccccc4)n3)C2)c1 (stereo not given)
i	O=C(NCc1cccs1)Nc1ccc(-c2nc3ccccc3o2)cc1
i	COCCCN1COc2ccc3c(=O)c(-c4ccccc4)coc3c2C1
i	COc1cccc(C2=C(c3cn(C)c4cc(F)ccc34)C(=O)NC2=O)c1
i	O=C(CSC1CCCC1)N1CCC(Oc2ccccn2)CC1
i	Cn1cccc1C(CNC(=O)Cc1cccc2ccccc12)N1CCOCC1 (stereo not given)
i	CC(C)c1ccc(OCC(=O)NCCn2nc(-n3ccnc3)ccc2=O)cc1
i	CSCCC(NS(=O)(=O)c1c(C)c(C)cc(C)c1C)C(=O)O (stereo not given)
i	COc1ccc(CC(=O)N2CCN(c3cccc(Cl)c3)CC2)cc1
i	COc1ccc2nc(CN3CCN(C(=O)C4(c5cccs5)CCCC4)CC3)[nH]c2c1
i	O=C(Cn1nc2c(c1NC(=O)Cc1noc3ccccc13)CSC2)NCc1ccco1
i	CCOc1cn(C)c(C(=O)Nc2ccc(Cl)c(Cl)c2)cc1=O
i	Cc1nc(N)c(N)cc1[N+](=O)[O-]
i	Cn1cccc1C(CNC(=O)C(=O)Nc1cc2c3c(c1)CCN3C(=O)CC2)N1CCCC1 (stereo not given)
i	COc1ccc(OCCn2c(C3CC(=O)N(C)C3)nc3ccccc32)cc1 (stereo not given)
i	O=C(c1c(F)cccc1F)N1CC(c2nc(-c3ccncc3)no2)C1
i	COc1cc(=O)c(C(=O)Nc2cccc(SC)c2)nn1-c1cccc(F)c1
i	COc1ccc(-n2nnnc2CNC(=O)Nc2ccc(OC)c(OC)c2)cc1
i	Cc1ccc(N(C)S(=O)(=O)c2ccsc2C(=O)NC2CC2)cc1C
i	CC(C)(C)OC(=O)N1CCC(OCc2nc(-c3ccncc3)no2)CC1
i	CSc1ccc(CNC(=O)Cn2c(=O)[nH]c3c(-c4ccccc4F)c[nH]c3c2=O)cc1
i	CCOc1ccc(NS(=O)(=O)c2ccc3c(c2)S(=O)(=O)N=CN3)cc1
i	Cc1onc(-c2ccccc2Cl)c1C(=O)NC1CC(=O)N(C2CC2)C1 (stereo not given)
i	N#Cc1c(C(F)(F)F)cc(-c2cccs2)nc1SCCC(=O)Nc1nccs1
i	O=C(CCCSc1ccccc1)Nc1nc(-c2cc([N+](=O)[O-])cs2)cs1
i	O=C(Nc1ccc(-c2cnc3n2CCC3)cc1)c1ccc2ncsc2c1
i	CCCc1nnsc1C(=O)NC1CCCC(OC(=O)Nc2ccccc2)C1 (stereo not given)
i	Cc1ccc(S(=O)(=O)N(C)c2cc(S(=O)(=O)N3CCC(C)CC3)c(C)cc2C)cc1
i	Cc1cc(NC(=O)c2ccc([N+](=O)[O-])cc2)n(-c2nc(-c3ccc4c(c3)OCO4)cs2)n1

# The list goes on, starting with the last 2 of the part before.
GIRK2 act	Compound
i	Cc1ccc(S(=O)(=O)N(C)c2cc(S(=O)(=O)N3CCC(C)CC3)c(C)cc2C)cc1
i	Cc1cc(NC(=O)c2ccc([N+](=O)[O-])cc2)n(-c2nc(-c3ccc4c(c3)OCO4)cs2)n1
i	O=C(Nc1cnc(N2CCCC2)nc1)Nc1cccc(C(F)(F)F)c1
i	Cc1nc(-c2cccc(NC(=O)c3csc(Nc4cccnc4)n3)c2)cs1
i	CCOC(=O)CNC(=O)c1cc2c(=O)n(C)c(=O)n(C)c2n1Cc1ccccc1
i	O=c1[nH]c(=S)c2c(n1CCN1CCOCC1)CCC2
i	Cc1nc(-c2ccccc2Cl)sc1CNS(C)(=O)=O
i	O=c1c(Cl)coc2cc(O)ccc12
i	CCc1ccc2oc3c(c(=O)c2c1)C(c1ccccc1)N(c1cc(C)on1)C3=O (stereo not given)
i	Cc1cc(NC(=O)c2ccc(F)cc2F)n(-c2nc3c(cnn3-c3ccc(Cl)cc3)c(=O)[nH]2)n1
i	Cc1ccccc1Cn1c(=O)c2c(nc3n(CCN(C)C)c(C)c(C)n23)n(C)c1=O
i	COc1ccc(Oc2c(C)oc3cc(OCC(=O)c4ccccc4)ccc3c2=O)cc1
i	COc1cc(OC)c(NC(=O)CN2C(=O)C3CCCC3=Nc3cc(C)c(C)cc32)cc1Cl (stereo not given)
i	CC(=O)O[C@@]1(C)[C@@H]2CC(=C(C)C)C(=O)C[C@@]2(C)CC[C@H]1OC(=O)C1(C)OC1C (stereo not given in full)
i	CSc1ccc(-c2noc(-c3nn(-c4cccc(SC)c4)ccc3=O)n2)cc1
i	CCOc1cccc(-c2noc(CCn3nc(-c4ccc(Cl)cc4)ccc3=O)n2)c1
i	CC(C)(C)NC(=O)N1CCC(CNS(=O)(=O)CCOc2ccccc2)CC1
i	O=C(NCCN1CCN(c2ccccc2)CC1)C(=O)Nc1ccc(C(F)(F)F)cc1
i	NC(=O)C1CCN(C(=O)CCc2csc(NC(=O)c3ccc(=O)[nH]c3)n2)CC1
i	COc1ccc(CNC(=O)Nc2nnc(-c3ccc4c(c3)OCCO4)o2)cc1
i	O=C(Nc1cnc(N2CCN(c3ccccc3)CC2)nc1)C1CCCO1 (stereo not given)
i	Cc1ccc(C)c2sc(N3CCN(S(C)(=O)=O)CC3)nc12
i	Cc1ccc(-c2nnc(NC(=O)c3ccc(S(=O)(=O)N4CC(C)OC(C)C4)cc3)o2)cc1C (stereo not given)
i	CCOc1ccc(-c2cc3c(=O)n(CC(=O)N4CCCC4)ncn3n2)cc1
i	Cc1nnc(-c2ccc(C)c(-c3ccc(C(=O)Nc4cccc(C#N)c4)cc3)c2)o1
i	CC(=O)Cn1c(=O)c2c(nc3n(-c4ccc(C)cc4C)c(C)cn23)n(C)c1=O
i	O=C(NCC1CCN(Cc2ccco2)CC1)Nc1cccc(C(F)(F)F)c1
i	O=C(NCCCS(=O)(=O)N1CCc2ccccc2C1)c1ccc2c(c1)OCO2
i	O=C(Nc1cccc(F)c1)c1cn(Cc2ccc(NC(=O)c3ccccc3F)cc2)cn1
i	COc1cccc2c(SCC(=O)NC(C)C)nccc12
i	COc1cccc2sc(N(C)CC(=O)Nc3ccc4cn[nH]c4c3)nc12
i	CC1CCCN(c2nc3ccccc3nc2C(C#N)S(=O)(=O)c2ccc(F)cc2)C1 (stereo not given)
i	CCNc1nn(CC(=O)N2CCN(c3ccccc3F)CC2)c(N)c1-c1nc(-c2ccccc2)no1
i	O=C(Nc1cc(OCc2ccccc2)ncn1)c1ccc(F)cc1

# Fetched by structure from the list above:
GIRK2 act	Compound
i	Cc1nnc(-c2ccc(C)c(-c3ccc(C(=O)Nc4cccc(C#N)c4)cc3)c2)o1
i	O=C(NCC1CCN(Cc2ccco2)CC1)Nc1cccc(C(F)(F)F)c1

# An excerpt of these results, in CSV form.
canonical_smiles,GIRK2 act
O=C(NCCN1CCN(c2ccccc2)CC1)C(=O)Nc1ccc(C(F)(F)F)cc1,i
NC(=O)C1CCN(C(=O)CCc2csc(NC(=O)c3ccc(=O)[nH]c3)n2)CC1,i
COc1ccc(CNC(=O)Nc2nnc(-c3ccc4c(c3)OCCO4)o2)cc1,i
O=C(Nc1cnc(N2CCN(c3ccccc3)CC2)nc1)C1CCCO1 (stereo not given),i
Cc1ccc(C)c2sc(N3CCN(S(C)(=O)=O)CC3)nc12,i
Cc1ccc(-c2nnc(NC(=O)c3ccc(S(=O)(=O)N4CC(C)OC(C)C4)cc3)o2)cc1C (stereo not given),i
